Assay outcomes (PubChem BioAssay)
Ecoli rRNA inh: reduced GFP signal of wild-type E. coli, primary screen, bacterial rRNA inhibitor project, GFP/RFP fluorescence, OD600, single point. actives 1.6% (n = 350,000). GFP signal change (wild-type ribosome), % (no concentration beside the values). E. coli WT GFP vs humanized-ribosome RFP mutants, 24 h; stronger effect = lower value; DMSO median 0, no signal -100;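 active = significant combined selectivity score with lowered wild-type GFP, culture density cut under 30%, mutant RFP and density less affected; inactive = any of these conditions unmet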; note: one replicate is shown; some compounds called inactive have numbers as strong as hits
Bfl-1 A1 inh: caspase 3/7 activation in MEF A1-2A-BIM cells, primary screen, A1 inhibitor project, cell-based, luminescence, HTS; actives 0.066% (n = 330,000); caspase activation, % (test concentration not listed); AID 2462, 2010; Caspase-Glo 3/7 luminescence, 3 h; percent of clofoctol response, vehicle zero;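 active = over half of replicate activation scores above 10%, or exactly half above 10 with the replicate mean above 10; inconclusive = replicate mean below 10 yet half the replicates above 10; inactive = over half of replicates below 10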;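 note: wells of about 30 µL received 50 nL stock; many hits fall short of the cut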
ALR inh: inhibitors of human ALR sulfhydryl oxidase, primary screen, biochemical, H2O2 detection, HRP-luminol luminescence, single point. purified ALR, DTT oxidation. FAD-linked sulfhydryl oxidase ALR (Homo sapiens), P55789. inhibition, % (concentration not given with the values). actives 3.8% (n = 290,000);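 active = mean and each replicate at 75% or more; inconclusive = only one of the two met; inactive = neither met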;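 note: stock transfer was 7.5 nL into about 7.5 µL; 0% = neutral wells and 100% = wells with inactivated enzyme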
Target sequence (P55789 whole entry, looked up): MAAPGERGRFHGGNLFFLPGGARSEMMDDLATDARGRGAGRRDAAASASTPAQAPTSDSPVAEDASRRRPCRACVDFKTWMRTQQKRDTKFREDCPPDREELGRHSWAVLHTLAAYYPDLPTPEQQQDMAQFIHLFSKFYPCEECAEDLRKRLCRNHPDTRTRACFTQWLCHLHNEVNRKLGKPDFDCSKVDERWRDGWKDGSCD
T cruzi repl: inhibitors of intracellular T. cruzi growth, primary screen, luminescence, NIH3T3 host cells; inhibition, % (concentration not given with the values); actives 1.4% (n = 300,000); T. cruzi beta-gal in NIH3T3, 90 h;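 active = mean inhibition across valid replicates above about 55%, limit read from the data; inconclusive = mean below that limit but half or more replicates reach it; inactive = mean below it, under half of replicates reach it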;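 note: signal also drops with host cell toxicity which is not excluded here; 0% = plate median of DMSO wells and 100% = zero luminescence signal; higher percent means less beta-gal luminescence so fewer parasites; stock transfer was 50 nL into about 50 µL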
Beta cell apopt: inhibitors of cytokine-induced beta cell apoptosis, primary screen, luminescence; AID 435005, 2010; actives 0.8% (n = 300,000); protection from apoptosis, % (concentration not given with the values); INS-1E cytokine-induced death, ATP luminescence, 48 h; percent of positive-control rescue, neutral wells zero;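 active = all replicates at 75% or more, or half of them and the mean; inconclusive = half reach 75% but not the mean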;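 note: 0% = cytokine-treated negative control wells and 100% = positive control rescue; higher means more ATP so stronger rescue from cytokine killing; wells of about 40 µL received 100 nL stock; the first replicate is given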
LANA-H2A inh: blockers of LANA interaction with H2A/H2B – biochemical, FP readout, HTS, primary screen. actives 0.6% (n = 320,000). cell-free LANA-H2A/H2B peptide, fluorescence polarization. inhibition, % (concentration not given with the values). AID 2629, 2010. Protein LANA1 (Human herpesvirus 8 type P (isolate GK18)), Q9QR71; in the data active = inhibition mostly above about 10%, no sharp cut-off; inactive = mostly below about 6.7%;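 note: stock transfer was 7.5 nL into about 10 µL; 0% = median of vehicle wells and 100% = median of positive control wells; one replicate is shown; the record names a cut of 25% in any replicate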
Beta2AR agonist: beta2AR agonists driving receptor internalization, primary screen, cell-based, FAP fluorogen, flow cytometry. Beta-2 adrenergic receptor (Homo sapiens), P07550. Am2.2-beta2AR cells; reference of the scale not given here. response, % (no concentration beside the values). actives 0.43% (n = 340,000);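 active = response above a set limit, near 3 SD of response in nonfluorescent compounds, cut at about 42% in these data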;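 note: stock transfer was 100 nL into about 11 µL; a reference agonist was the positive control; negative values mostly stem from fluorescent compounds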
Target sequence (P07550 whole entry, looked up): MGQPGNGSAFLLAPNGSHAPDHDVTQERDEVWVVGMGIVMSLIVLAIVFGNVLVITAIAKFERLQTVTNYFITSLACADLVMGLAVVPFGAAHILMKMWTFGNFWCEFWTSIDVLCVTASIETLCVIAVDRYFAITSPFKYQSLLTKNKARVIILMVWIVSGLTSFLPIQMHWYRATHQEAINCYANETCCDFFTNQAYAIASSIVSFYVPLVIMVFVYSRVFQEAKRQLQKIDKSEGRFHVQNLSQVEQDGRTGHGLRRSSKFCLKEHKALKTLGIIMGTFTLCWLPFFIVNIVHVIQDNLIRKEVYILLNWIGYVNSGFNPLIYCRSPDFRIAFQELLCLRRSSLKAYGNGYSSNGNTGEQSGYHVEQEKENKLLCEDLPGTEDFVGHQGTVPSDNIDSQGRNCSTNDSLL
Calb FLC: C. albicans growth inhibition with fluconazole, primary screen, CaCi-2 strain, Alamar Blue fluorescence; growth inhibition, % (test concentration not listed); actives 0.57% (n = 300,000); AID 1979, 2009; C. albicans CaCi-2 (fluconazole-resistant clinical isolate) + fluconazole, 48 h;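 active = most replicates above 75%; inconclusive = exactly half above 75%; inactive = most below 75%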;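 note: all wells also contain fluconazole at 8 µg/ml as a sub-toxic cotreatment; 0% = median of DMSO wells and 100% = median of geldanamycin control wells; wells of about 8 µL received 7.5 nL stock; the first replicate is given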
Ecoli rRNA inh OD600: also measured in Ecoli rRNA inh; calls as there; OD600 change, %; measured here: OD600 growth;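 optical density of the mix in the first replicate; 0 = DMSO median and -100 = no signal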
Ecoli rRNA inh RFP: further read-out of Ecoli rRNA inh, marked with its call; RFP signal change, %; measured here: RFP humanized mutant strains;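 first replicate; 0 = DMSO median and -100 = no signal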
* = called active by the depositor; & = joins results of further samples. A portion of the library; count on the stated rates, not on these rows.

Screening CC[N+](CC)(CC)CCCOC(=O)C(O)(c1ccccc1)C1CCCCC1 (configuration not stated) returned Bfl-1 A1 inh 0.5, T cruzi repl -12, Beta cell apopt -3, LANA-H2A inh -1.0, Beta2AR agonist 0 and Calb FLC -12.
COC(=O)C1C(OC(=O)c2ccccc2)CC2CCC1N2C (configuration not stated) was read as Ecoli rRNA inh 6, Bfl-1 A1 inh 0.1, ALR inh 1, T cruzi repl -2, Beta cell apopt -15, LANA-H2A inh -7.2, Beta2AR agonist 4&12, Calb FLC -4, Ecoli rRNA inh OD600 6 and Ecoli rRNA inh RFP -0.8.
`CCN1CCN(CC(=O)c2c(C)n(Cc3ccccc3)c3ccc(OC)cc23)CC1` gave Bfl-1 A1 inh -1.1, ALR inh -4, T cruzi repl -1, Beta cell apopt 2, LANA-H2A inh 1.9, Beta2AR agonist 4 and Calb FLC -12.
`Cc1ccc2c(c1)C1CN(C)CCC1N2C(=O)Cc1cccs1` (configuration not stated) gave Ecoli rRNA inh 15, Bfl-1 A1 inh -0.3, ALR inh -12, T cruzi repl 25, Beta cell apopt -4, LANA-H2A inh -0.6, Beta2AR agonist -14, Calb FLC 4, Ecoli rRNA inh OD600 11 and Ecoli rRNA inh RFP 2.8.
Screening COc1ccccc1-n1c(-c2ccc(C)cc2)nc2ccccc2c1=O returned Ecoli rRNA inh -11, T cruzi repl 6, Beta2AR agonist -13, Calb FLC 14, Ecoli rRNA inh OD600 -9 and Ecoli rRNA inh RFP 5.3.
`CC(ON1CC1(C(F)(F)F)C(F)(F)F)(C(N)=O)C(N)=O` (configuration not stated) gave Bfl-1 A1 inh 0.1, ALR inh -7, T cruzi repl -5, Beta cell apopt 5, LANA-H2A inh -4.5, Beta2AR agonist -1 and Calb FLC -9.
Clc1ccc(OCC#CCN2CCCCCC2)cc1 was read as Ecoli rRNA inh -4, Bfl-1 A1 inh 0.1, ALR inh -1, T cruzi repl 12, Beta cell apopt 1, LANA-H2A inh -7.4, Beta2AR agonist -1, Calb FLC -55, Ecoli rRNA inh OD600 -7 and Ecoli rRNA inh RFP -5.4.
`COC(=O)C1=Nc2ccccc2/C1=C\c1c(O)n(-c2ccc(OC)cc2)c(=O)[nH]c1=O` gave Bfl-1 A1 inh 0.2, ALR inh 23, T cruzi repl -1, Beta cell apopt -18, LANA-H2A inh -0.6, Beta2AR agonist 13 and Calb FLC 10.
COC(=O)C1=C(c2ccc(OC(F)(F)F)cc2)C[C@@H]2CC[C@H]1N2C(=O)NCCO was read as Ecoli rRNA inh 9, Bfl-1 A1 inh -0.1, ALR inh 1, Beta cell apopt -2, LANA-H2A inh -0.9, Beta2AR agonist -1, Ecoli rRNA inh OD600 2 and Ecoli rRNA inh RFP 6.5.
`C[C@H]1CCCC(=O)CCC/C=C/c2cc(O)cc(O)c2C(=O)O1` gave Bfl-1 A1 inh 0.4, T cruzi repl 5, Beta cell apopt -10, LANA-H2A inh -4.5 and Beta2AR agonist -2.
For COc1cccc(CCNCc2cccc(C(F)(F)F)c2)c1 the results were Ecoli rRNA inh 9, Bfl-1 A1 inh -1.2, ALR inh 2, T cruzi repl 64*, Beta cell apopt 3, LANA-H2A inh 1.8, Beta2AR agonist -8, Calb FLC -2, Ecoli rRNA inh OD600 5 and Ecoli rRNA inh RFP -3.4.
Screening CCN(CCNc1ccc([N+](=O)[O-])c2cccnc12)S(=O)(=O)c1ccc(Cl)cc1 returned Bfl-1 A1 inh 0.2, ALR inh -5, T cruzi repl 35, Beta cell apopt 3, LANA-H2A inh 2.8, Beta2AR agonist 7 and Calb FLC 6.
For COc1cccc(N2CCN(Cc3ccc(Cl)cc3)CC2)c1 the results were Ecoli rRNA inh -33*, Bfl-1 A1 inh 0.2, ALR inh 43, T cruzi repl 1, Beta cell apopt 1, LANA-H2A inh 1.8, Beta2AR agonist 5, Calb FLC -11, Ecoli rRNA inh OD600 -16* and Ecoli rRNA inh RFP -4.2*.
`O=C(Nc1cccc(Cl)c1)OC1CN2CCC1CC2` (configuration not stated) gave Ecoli rRNA inh -39*, Bfl-1 A1 inh -1.3, ALR inh -5, T cruzi repl 36, LANA-H2A inh -4.2, Beta2AR agonist 3, Calb FLC -8, Ecoli rRNA inh OD600 -14* and Ecoli rRNA inh RFP -12*.
Cc1cc(OCC(=O)N2CCC(C(=O)O)CC2)c2c3c(c(=O)oc2c1)CCC3 was read as Bfl-1 A1 inh 1.0, ALR inh -4, T cruzi repl 3, Beta cell apopt -5, LANA-H2A inh 1.3, Beta2AR agonist -9 and Calb FLC -2.
O=C(Cn1ncc2c3ccccc3n(Cc3ccccc3F)c2c1=O)N1CCC2(CC1)OCCO2 was read as Bfl-1 A1 inh 0.5, ALR inh -4, T cruzi repl 3, Beta cell apopt 5, LANA-H2A inh -6.6, Beta2AR agonist 51* and Calb FLC 5.
`O=P1(NC2CCCC2)COc2ccccc2OC1` gave Bfl-1 A1 inh 1.6, ALR inh -7, T cruzi repl -2, LANA-H2A inh 5.0, Beta2AR agonist 9 and Calb FLC 2.
`CC1(C)CN=C(NCc2ccccc2Cl)S1` gave Bfl-1 A1 inh 0.5, ALR inh -9, T cruzi repl -14, Beta cell apopt -11, LANA-H2A inh 3.8, Beta2AR agonist 0 and Calb FLC -29.
Screening O=C(CCC(=O)N1C[C@H]2C[C@@H](C1)c1cccc(=O)n1C2)NCc1ccc(F)cc1 returned Ecoli rRNA inh 1, Bfl-1 A1 inh 0.7, ALR inh -17, Beta cell apopt -2, LANA-H2A inh 3.3, Beta2AR agonist -3, Ecoli rRNA inh OD600 -1 and Ecoli rRNA inh RFP 0.2.
`CN1CCC(OC(=O)C2c3ccccc3Oc3ccccc32)CC1` gave Bfl-1 A1 inh -0.1, T cruzi repl 45, Beta cell apopt -4, LANA-H2A inh -6.2, Beta2AR agonist -4 and Calb FLC -7.
Screening C1=NCCc2c1[nH]c1ccccc21 returned Ecoli rRNA inh 27, Bfl-1 A1 inh 0.1, ALR inh -2, T cruzi repl 27, LANA-H2A inh 2.8, Beta2AR agonist 9, Calb FLC -1, Ecoli rRNA inh OD600 39 and Ecoli rRNA inh RFP 40.
For CC(C)C[C@H](NC(=O)[C@@H]1CCCN1C(=O)[C@@H](N)Cc1ccc(O)cc1)C(=O)NCC(N)=O the results were Bfl-1 A1 inh -0.3, T cruzi repl -6, Beta cell apopt -6, LANA-H2A inh -6.4, Beta2AR agonist -2 and Calb FLC 3.
Screening CN1CCN(C(=O)Cc2ccccc2)CC1 returned Ecoli rRNA inh -6, Bfl-1 A1 inh -0.2, ALR inh -2, T cruzi repl 1, Beta cell apopt 0, LANA-H2A inh -1.2, Beta2AR agonist -5, Calb FLC -20, Ecoli rRNA inh OD600 1 and Ecoli rRNA inh RFP -2.5.
`O=c1[nH]c(=O)n(C2CCCCCC2)c(O)c1C=NCC1CCCO1` (configuration not stated) gave Bfl-1 A1 inh 0.9, ALR inh 0, T cruzi repl -12, Beta cell apopt -12, LANA-H2A inh 5.4, Beta2AR agonist 9 and Calb FLC -10.
O=[N+]([O-])c1ccc2nc(N3CCNCC3)ccc2c1 was read as Bfl-1 A1 inh -1.3, ALR inh -7, T cruzi repl 16, LANA-H2A inh 1.3 and Calb FLC -3.
For O=C1NC(=O)C(=Cc2cc([N+](=O)[O-])ccc2N2CCCCC2)C(=O)N1 the results were Ecoli rRNA inh -40, Bfl-1 A1 inh -0.1, ALR inh -2, T cruzi repl 3, Beta cell apopt -2, LANA-H2A inh 0.9, Beta2AR agonist 4, Calb FLC inconclusive, Ecoli rRNA inh OD600 -45 and Ecoli rRNA inh RFP -3.1.
`C[C@]12C[C@H](O)[C@@H](O)CC1=CCC1C2CC[C@@]2(C)C1CC[C@@H]2O` (some centres not stated) gave Ecoli rRNA inh -5, Bfl-1 A1 inh -0.4, ALR inh 0, Beta cell apopt -1, LANA-H2A inh -4.7, Beta2AR agonist -5, Ecoli rRNA inh OD600 -25 and Ecoli rRNA inh RFP -3.7.
Screening O=C(c1ccc(CS(=O)(=O)c2ccccc2)o1)N1CCC2(CC1)OCCO2 returned Bfl-1 A1 inh 0.9, ALR inh -6, T cruzi repl -7, Beta cell apopt 5, LANA-H2A inh 9.2, Beta2AR agonist -2 and Calb FLC -16.
Screening COc1ccc(F)cc1C(=O)C1CCCN(Cc2cnc(C)s2)C1 (configuration not stated) returned Bfl-1 A1 inh 0.0, ALR inh 5, T cruzi repl 24, Beta cell apopt 2, LANA-H2A inh 5.4, Beta2AR agonist 5 and Calb FLC -20.
Screening COc1cccc(C2CC3C(=O)C=CC2N3Cc2ccccc2)c1 (configuration not stated) returned Ecoli rRNA inh 10, Bfl-1 A1 inh -0.3, ALR inh -104, T cruzi repl 5, Beta cell apopt -2, LANA-H2A inh -6.9, Beta2AR agonist 9, Calb FLC 3, Ecoli rRNA inh OD600 7 and Ecoli rRNA inh RFP 0.0.
Screening CCCCn1c(=O)c(C(=O)NCc2ccncc2)c(O)c2ccccc21 returned Bfl-1 A1 inh 0.6, ALR inh -15, T cruzi repl 22, Beta cell apopt -8, LANA-H2A inh -0.9, Beta2AR agonist 2 and Calb FLC inconclusive.
CN1C2CCC1CC(OC(=O)c1ccc([N+](=O)[O-])cc1)C2 (configuration not stated) was read as Ecoli rRNA inh 9, Bfl-1 A1 inh -0.4, T cruzi repl 6, Beta cell apopt 10, Beta2AR agonist 2, Calb FLC -13, Ecoli rRNA inh OD600 12 and Ecoli rRNA inh RFP -3.3.
`COC(=O)C1=C(c2ccc(-c3ccccc3)c(F)c2)C[C@@H]2CC[C@H]1N2C(=O)NCc1ccco1` gave Ecoli rRNA inh 4, Bfl-1 A1 inh -1.3, ALR inh -2, Beta cell apopt 0, LANA-H2A inh 2.9, Beta2AR agonist -4, Ecoli rRNA inh OD600 2 and Ecoli rRNA inh RFP -2.4.
For COc1ccc(-n2c(C)cc(C(=O)C[N+]34CCN(CC3)CC4)c2C)cc1 the results were Ecoli rRNA inh 14, Bfl-1 A1 inh 0.2, ALR inh 35, T cruzi repl -14, Beta cell apopt -2, LANA-H2A inh -0.9, Beta2AR agonist 0, Calb FLC -5, Ecoli rRNA inh OD600 13 and Ecoli rRNA inh RFP -2.3.
Screening COc1ccc(C(C)=O)cc1CC(C(=O)c1ccc(Br)cc1)N(C)C (configuration not stated) returned Bfl-1 A1 inh 1.1, ALR inh 7, T cruzi repl 8, Beta cell apopt 0, LANA-H2A inh -0.5, Beta2AR agonist -15 and Calb FLC 38.
`Cc1[nH]c2ccccc2c1C(=O)C(=O)N1CCC2(CC1)OCCO2` gave Ecoli rRNA inh 12, Bfl-1 A1 inh 2.1, T cruzi repl -16, Beta cell apopt -1, LANA-H2A inh 3.7, Beta2AR agonist 7, Calb FLC 7, Ecoli rRNA inh OD600 8 and Ecoli rRNA inh RFP -0.3.
